miR-21 reporter: miR-21 reporter, rising signal; 340,000 tested, under 10 active; HeLa miR-21 FLuc reporter, luciferase, 48 h; Potency, µM (top dose mostly 38.3 µM), without a hit: at the highest dose reporter change, positive = more light; active = well fitted rising curve with a large enough effect; inconclusive = small, poorly fitted or top-dose-only effect; inactive = no such curve, though single readings can be large or run the other way;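 further: % of control where 0% means no effect; miR-21 action dims this reporter so a rising signal means less miR-21 action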
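Using DMEM plus 10% FBS, HeLa miR-21-FLuc cells are incubated with test compounds (final up to about 40uM) for 48 hours; firefly luciferase signal is then imaged following reagent-mediated lysis.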
Rango release inh: prevents RanGTP from dissociating the Rango-importin beta complex | O95149+P62826 | Biochemical FRET Rango-importin beta, RanGTP-induced dissociation | Potency, µM (top dose mostly 46.1 µM), inactives show top-dose activity change, negative = inhibition | actives 0.071% (n = 340,000); active means falling FRET ratio curve, often poorly fitted, with flat reads before Ran was added; inconclusive means other falling curves, or compound fluorescence or quenching; inactive means flat or rising ratio curve;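 further: potency means the concentration at half of the fitted maximal effect; % of control where 0% means no effect; nearly all actives have a fitted effect of over 45% in size; -100% = wells without RanGTP and RCC1; the record marks most hits as doubtful in a second field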
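FRET read at 45 min, room temperature: inhibitors block the CFP/YFP signal rise when RanGTP (0.6 uM Ran, 2 mM GTP, 0.2 uM RCC1) frees Rango (0.1 uM) from importin beta (0.25 uM). Pre-read after 5 min compound exposure flags interference.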
Rango-impB inh: inhibitors of Rango-importin beta complex formation; Potency, µM (doses to about 92.2 µM), for the others: at the highest dose inhibition of complex formation; Rango CFP/YFP FRET sensor + importin beta, 45 min; actives 0.031% (n = 340,000); active = rising FRET ratio curve, often small or poorly fitted; inconclusive = mostly compound fluorescence or quenching in the first reads; inactive = flat curves in all reads;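 further: potency means the concentration at half of the fitted maximal effect; 0% = DMSO wells and 100% = buffer wells lacking importin beta; nearly all actives have a fitted effect of over 15% in size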
Target sequence (Q14974 whole entry, looked up): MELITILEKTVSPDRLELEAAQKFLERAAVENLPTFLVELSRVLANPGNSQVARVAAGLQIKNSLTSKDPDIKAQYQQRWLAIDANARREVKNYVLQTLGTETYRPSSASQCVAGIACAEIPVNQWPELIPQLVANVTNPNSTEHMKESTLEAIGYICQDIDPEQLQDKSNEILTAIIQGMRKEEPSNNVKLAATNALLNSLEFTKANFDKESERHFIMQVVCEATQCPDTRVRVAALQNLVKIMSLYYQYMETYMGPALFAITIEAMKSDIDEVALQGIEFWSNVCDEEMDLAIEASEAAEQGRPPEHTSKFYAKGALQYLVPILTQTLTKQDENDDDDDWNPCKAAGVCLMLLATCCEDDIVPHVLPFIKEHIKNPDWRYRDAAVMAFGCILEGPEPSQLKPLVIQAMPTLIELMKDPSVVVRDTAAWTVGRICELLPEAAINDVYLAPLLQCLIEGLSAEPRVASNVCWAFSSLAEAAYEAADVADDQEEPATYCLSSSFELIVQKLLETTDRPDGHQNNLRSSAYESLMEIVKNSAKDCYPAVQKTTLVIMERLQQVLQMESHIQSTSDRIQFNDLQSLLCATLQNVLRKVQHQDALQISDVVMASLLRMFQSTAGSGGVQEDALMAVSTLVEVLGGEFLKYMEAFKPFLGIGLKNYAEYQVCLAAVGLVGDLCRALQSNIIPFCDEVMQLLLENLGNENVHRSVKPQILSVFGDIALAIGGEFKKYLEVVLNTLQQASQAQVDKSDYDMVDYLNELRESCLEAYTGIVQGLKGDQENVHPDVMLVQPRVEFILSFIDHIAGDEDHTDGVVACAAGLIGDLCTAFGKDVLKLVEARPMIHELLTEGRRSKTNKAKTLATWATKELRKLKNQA
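FRET biosensor (snurportin 1 IBB flanked by EYFP and cerulean), 50 nM, with compound 5 min, then 0.125 microM importin beta in PBS, 1 mM DTT, 0.02% Tween-20, 0.1% BSA. CFP/YFP ratio read after 45 min at room temperature; pre-read flags interference.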
GLA inh pH 4.5: inhibitors of human alpha-galactosidase A at pH 4.5; activity change, negative = inhibition, % at 105 µM; P06280; AID 1467; purified enzyme, 4-MU-alpha-Gal fluorescence, pH 4.5; 230,000 tested, under 10 active; inconclusive = small, poorly fitted or top-dose-only inhibition, or a rising curve; inactive = flat fitted curve, though single readings scatter; no compound was filed as active;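 further: 0% = full activity with enzyme and -100% = basal without enzyme; dose as in the result columns while the protocol names 77 µM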
The depositor's hits bear a star; ? = inconclusive; · = not tested or not shown; & = joins results of further samples. These rows are one share of the data, so the mix of outcomes need not match the whole.

SMILES	miR-21 reporter	Rango release inh	Rango-impB inh	GLA inh pH 4.5
COC(=O)c1cc(S(=O)(=O)N2CCCC(C)C2)cn1C (stereo not drawn)	-2%	13%	-2.5%	·
CC/C(=N\NC(=O)c1ccc(CN(C)S(=O)(=O)c2ccc(C)cc2)cc1)c1ccc(OC(F)F)cc1	-2%	-6%	?	0
Nc1n[nH]c(-c2ccccc2)n1	-6%	-1%	0.7%	8
CCOc1ccccc1N1CSC2=C(C#N)C(c3c(OC)ccc4ccccc34)CC(=O)N2C1 (stereo not drawn)	7%	?	?	-1
CCOC(=O)c1c(C)n(C)c2ccc(OC)c(NC(=O)CCN3CCC(Cc4ccccc4)CC3)c12	19%	-13%	-1.2%	8
Cc1ccnc2nc(C(=O)OCC(=O)Nc3ccc4c(c3)OCCO4)nn12	·	14%	1.8%	·
CCCNS(=O)(=O)c1ccc(OCC(=O)N2CCC(C(=O)OCC)CC2)cc1	1%	29%	0.0%	0
CCOc1ccc(S(=O)(=O)N2CCOCC2)cc1NC(=O)CSC(=S)N1CCCC1	·	10%	-0.9%	·
COc1ccc(S(=O)(=O)N2N=C(c3ccc(NS(C)(=O)=O)cc3)CC2c2ccco2)cc1 (stereo not drawn)	5%	-21%	?	3
Cc1ccc(S(=O)(=O)c2ccc(Cl)cc2)cc1S(=O)(=O)NC(C)C(=O)O (stereo not drawn)	-23%	25%	2.6%	3
C=CCN1C(=O)[C@@H]2Cc3c([nH]c4ccccc34)C(c3ccc(O)cc3)N2C1=S (stereo partly drawn)	11%	-24%	?	·
CCOc1ncccc1C(=O)NC(C)CCc1ccccc1 (stereo not drawn)	-10%	2%	2.7%	·
O=C(CCC1CCCC1)Nc1ccc([N+](=O)[O-])cn1	-41%	-10%	-4.4%	1
COc1cc([C@@H]2C[C@H]3CN(c4ccccc4)C(=O)[C@]34CCCN24)cc(OC)c1OC	4%	-18%	6.4%	0
O=C1CC(N2CCC(c3nc4ccccc4o3)CC2)C(=O)N1Cc1cccs1 (stereo not drawn)	-7%	-5%	-0.4%	-4
COc1ccccc1NC(=O)Cn1cnc2sc(C(=O)NCc3ccco3)c(C)c2c1=O	-4%	-19%	-0.8%	3
CCc1nnc(NC(=O)c2ccc(S(=O)(=O)N3CCCC(C)C3)cc2)s1 (stereo not drawn)	1%	-10%	2.8%	·
Cc1ccc(C2CC(=O)Nc3c2ccc2ccccc32)cc1[N+](=O)[O-] (stereo not drawn)	0%	1%	1.9%	-8
O=C(Oc1cccc2cccnc12)c1cccc([N+](=O)[O-])c1	-2%	-4%	-1.4%	-15
COc1ccc(C2NC(=O)NC(C)=C2C(=O)OC2CCCC(C)C2)cc1 (stereo not drawn)	1%	5%	3.1%	·
Cc1ccc(C)c(N2CCN(S(=O)(=O)c3ccc(-c4cc(C)no4)s3)CC2)c1	1%	-5%	3.2%	·
Cn1c(O)c(N=NC(=O)c2cc(-c3cccs3)nc3ccccc23)c2ccccc21	-3%	-4%	3.1%	-10
Nc1ccccc1C(=O)NNC1=C(C(=O)C(F)(F)F)CCC1	-90%	13%	0.2%	-13
CCc1ccc(CN(C)Cc2nc(COc3ccccc3)no2)nc1	-4%	5%	-3.2%	5
Cc1ccc(S(=O)(=O)Cc2ccc(C(=O)NCc3cccs3)o2)cc1	2%	0%	-0.9%	4

The results go on.
SMILES	miR-21 reporter	Rango release inh	Rango-impB inh	GLA inh pH 4.5
CCc1ccc(-c2nc(SCC(=O)NC3CC3)n[nH]2)cc1	·	-2%	-0.6%	·
COC(=O)c1ccc(NC(=O)Nc2cccc(F)c2)cc1	9%	-5%	-0.3%	-2
CCCCc1oc2c(c(=O)c1C)C(=O)CC(c1ccccc1)C2 (stereo not drawn)	17%	-8%	0.5%	2
S=C(NCCc1ccccc1)N/N=C/c1ccccc1Cl	-14%	6%	6.5%	2
CC(C)(C)S(=O)(=O)c1cnc2c(-c3ccsc3)cnn2c1N	-18%	-5%	1.5%	4
Cc1nc2ccc(NC(=O)CCS(=O)(=O)c3ccc(Cl)cc3)cc2s1	7%	-5%	0.7%	-1
C=CCC(C(=O)OC)(C(=O)OC)c1ccc([N+](=O)[O-])cc1[N+](=O)[O-]	4%	-4%	?	2
CC1=C(C(=O)OCC2CCCCC2)C(c2ccc(F)cc2)NC(=O)N1 (stereo not drawn)	2%	-17%	-1.4%	·
CCC1(C)Cc2c(sc3nnn(CC(=O)Nc4ccc(Cl)cc4)c(=O)c23)CO1 (stereo not drawn)	16%	6%	1.1%	-6
N#Cc1cccc(NC(=O)CSc2ccccc2)c1	-22%	10%	-0.1%	-9
CN(Cc1ccccc1F)C(=O)CN1CCN(S(=O)(=O)c2ccc3c(c2)OCCCO3)CC1	·	-25%	1.9%	·
CCN(CC)CCCNC(=O)C1CCN(C(=O)c2cc3sccc3n2Cc2ccc(F)cc2)CC1	-16%	9%	6.5%	-8
CCCCCNc1c(C(=O)OCC)c(=O)[nH]c2ccccc12	26%	4%	-4.4%	-2
O=C(CSc1nnnn1-c1ccccc1)Nc1ncc(Cc2ccccc2Cl)s1	-8%	1%	-1.1%	8
COc1ccc(Cl)c(N2CCN(CCCNC(=O)Nc3ccc(C)cc3)CC2)c1	21%	25%	-3.3%	-11
COc1ccc(NC(=O)c2ccc3nccnc3c2)cc1	-27%	-13%	-1.8%	-19
c1ccc(C(c2ccccc2)N2CCN(Cc3nnnn3C3CCCCC3)CC2)cc1	-2%	-4%	-1.0%	-17
COc1cc2cc(C(c3nnnn3C3CCCC3)N(C)C3CCCCC3)c(=O)[nH]c2cc1OC (stereo not drawn)	1%	-15%	-0.3%	1
CCCC(C(=O)NC(C)(C)C)N(CC1CCCO1)C(=O)c1snc(C(N)=O)c1N (stereo not drawn)	0%	7%	-2.0%	-1
COC(=O)[C@@H]1CCCN1C(=O)CCc1nnc(C2CCCCC2)o1	-2%	-4%	-0.1%	8
Cc1cc(NC(=O)CSCC(=O)Nc2ccc(Cl)c(C(F)(F)F)c2)no1	·	-2%	2.5%	·
CSc1ccc(CNC(C)(C)CO)cc1	-1%	-2%	1.8%	9
O=C(O)CCSc1nnc(COc2cccc3cccnc23)n1-c1ccccc1	0%	1%	4.6%	2
O=C1c2ccccc2C(=O)N1CCSC(=S)N1CCOCC1	-20%	0%	-0.5%	10
CNC(=O)[C@@H]1C[C@H]1[C@@H](NC(=O)OCc1ccccc1)c1ccccc1	-3%	-5%	-0.1%	4&2

Arranged by molecular weight (ascending): some entries from above.
SMILES	miR-21 reporter	Rango release inh	Rango-impB inh	GLA inh pH 4.5
S=C(NCCc1ccccc1)N/N=C/c1ccccc1Cl	-14%	6%	6.5%	2
CC(C)(C)S(=O)(=O)c1cnc2c(-c3ccsc3)cnn2c1N	-18%	-5%	1.5%	4
CCCC(C(=O)NC(C)(C)C)N(CC1CCCO1)C(=O)c1snc(C(N)=O)c1N (stereo not drawn)	0%	7%	-2.0%	-1
COc1cc2cc(C(c3nnnn3C3CCCC3)N(C)C3CCCCC3)c(=O)[nH]c2cc1OC (stereo not drawn)	1%	-15%	-0.3%	1

Compound profiles, as listed above. Order of values: miR-21 reporter	Rango release inh	Rango-impB inh	GLA inh pH 4.5
CC1=C(C(=O)OCC2CCCCC2)C(c2ccc(F)cc2)NC(=O)N1 (stereo not drawn) in the list: 2%	-17%	-1.4%	·
COC(=O)c1cc(S(=O)(=O)N2CCCC(C)C2)cn1C (stereo not drawn) in the list: -2%	13%	-2.5%	·

Next part
SMILES	miR-21 reporter	Rango release inh	Rango-impB inh	GLA inh pH 4.5
O=C1C2C3CCC(C3)C2C(=O)N1c1ccc2ccccc2c1 (stereo not drawn)	-11%	14%	3.2%	·
CCN1C2=C(C(=O)CCC2)C(c2ccc(O)cc2)C2=C1CCCC2=O	-2%	?	?	4
CCOC(=O)C(Sc1cc(C)nc(N)n1)C(C)=O (stereo not drawn)	0%	-12%	-1.2%	-9
COc1cc(-c2nnc(-c3cccs3)o2)cc(OC)c1OC	-14%	-5%	1.5%	0
CCN(CC)CCNC(=O)c1ccc(NC(=O)Nc2cccc3ccccc23)cc1	0%	10%	-2.0%	·
CC(=O)c1c(C)[nH]c(C(=O)OCC(=O)Nc2cc(C(F)(F)F)ccc2N2CCOCC2)c1C	4%	4%	-0.5%	-2
COc1ccccc1N(CC(=O)Nc1ccc2c(c1)OCCO2)S(C)(=O)=O	-2%	0%	0.0%	1
COc1ccc(Cc2noc(CN(C)CCN3CCc4ccccc4C3)n2)cc1OC	1%	0%	-4.0%	-1
Cc1ccc(S(=O)(=O)N2CCN=C2SCc2c(F)cccc2Cl)cc1	0%	2%	1.1%	·
CC(=O)c1oc2ccccc2c1NC(=O)COC(=O)c1ccc(-n2nc(C)cc2C)cc1	0%	0%	-0.6%	-1
CCCOc1ccc(C(=O)OCC(=O)c2c(N)n(C)c(=O)n(C)c2=O)cc1OC	5%	-1%	-0.2%	6
COc1ccc2sc(N(CCN(C)C)C(=O)c3cc(Cl)sc3Cl)nc2c1	-8%	-3%	-2.1%	3
COc1cc(OC)c(NC(=O)CC(C)=O)cc1Cl	-13%	-5%	0.6%	1
c1cc(CNc2ccc3c(c2)OCO3)ccn1	-16%	?	?	10
Cc1cc(NC(=O)COC(=O)COc2ccc(C(=O)c3ccccc3)cc2)no1	-3%	-10%	-2.2%	3
Cc1noc(C)c1S(=O)(=O)N(CC(=O)N1CCCC1)c1ccc(C(C)C)cc1	-9%	8%	-0.7%	-5
CCn1cc(Cl)c(C(=O)Nc2cccc(C(F)(F)F)c2)n1	-29%	15%	2.6%	0
CCOC(=O)c1ccc(Oc2cn[nH]c2-c2ccc(O)cc2O)cc1	9%	2%	2.5%	-3
CCOc1ccc(S(=O)(=O)Nc2ccccc2C(=O)NCC2CCCO2)cc1 (stereo not drawn)	-7%	11%	-0.2%	6
O=C(CN1CCN(c2ccc(F)cc2)CC1)N1CCC(Cc2ccccc2)CC1	7%	-7%	-0.5%	-19
O=C(/C=C/c1ccco1)NC(=S)Nc1ccccc1N1CCCC1	-1%	0%	?	6
Cc1ccc(C(=O)NCc2ccccn2)cc1NC1=NC2CS(=O)(=O)CC2S1 (stereo not drawn)	1%	-1%	0.9%	·
Cc1ccc(NC2c3ccccc3C(=O)N2CCN2CCOCC2)cc1 (stereo not drawn)	-7%	34%	4.1%	-7
O=C(Oc1ccc2c(c1)C(=O)c1ccccc1CO2)c1ccccc1	-22%	1%	5.2%	4
CCOc1ccc(C(=O)NC(=S)NC2CCCC2)cc1[N+](=O)[O-]	-14%	-14%	1.0%	6

Following part.
SMILES	miR-21 reporter	Rango release inh	Rango-impB inh	GLA inh pH 4.5
Cc1c(C(=O)N/N=C/c2ccc(O)c(Br)c2)sc(N)c1C#N	-25%	?	?	-2
CCOC(=O)C1CCCN(c2nc3ccccc3nc2C(C#N)C(=O)NCc2ccccc2)C1 (stereo not drawn)	2%	?	?	-11
O=C(Cn1ncc2c(=O)oc3ccccc3c21)NCCc1ccsc1	-3%	-7%	-3.3%	3
CCOC(=O)c1c(NC(=O)C2=COCCO2)sc2c1CCN(C(=O)OC)C2	·	-10%	-2.3%	·
CCCCn1c(SCC(=O)c2ccc(OC)cc2OC)nc2cc(S(N)(=O)=O)ccc21	-6%	-17%	3.6%	-7
CCNC(=O)c1sc(-c2ccccc2)nc1C	-52%	-13%	0.7%	-3
Cc1ccc(C(=O)Nc2cc3c(cc2N2CCCCC2)n(C)c(=O)n3C)cc1	-3%	-15%	0.8%	·
CC(C)(C)N1C(=O)c2ccc(C(=O)Nc3ccc(-c4nc5ccccc5[nH]4)cc3)cc2C1=O	-22%	1%	-1.1%	6
O=C(NC(=S)NN1CCCCC1c1cccnc1)c1ccc(Cl)cc1Cl (stereo not drawn)	-10%	7%	-4.5%	-9
CCc1cc2cc(OC)ccc2nc1SCC(=O)NNC(=O)c1ccco1	2%	-5%	0.2%	8
CCNC(=S)N1CCN(S(=O)(=O)c2ccccc2C(F)(F)F)CC1	0%	13%	3.3%	?
CCN(CC)CCN1C(=O)C(=O)/C(=C(/O)c2c(C)[nH]c(C(=O)OC)c2C)C1c1ccc(C)o1 (stereo not drawn)	0%	5%	-5.3%	-3

Bioassay records from PubChem BioAssay.
